# Sfp PPTase inh: qHTS Assay for Inhibitors of Bacillus subtilis Sfp phosphopantetheinyl transferase (PPTase) | Biochemical Sfp PPTase activity, qHTS | hit rate 3.5% among 310,000 | Potency, µM, for the others: max response, negative = inhibition, hits mostly inhibitors | 4'-phosphopantetheinyl transferase ffp (Bacillus subtilis), Q9F4F7; active = well fitted inhibition curve with a large enough effect; inconclusive = small, poorly fitted or top-dose-only effect, or another doubt; inactive = no such curve, though single readings can be large or run the other way;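 also: the enzyme is Sfp with the accession as filed and its product quenches rhodamine fluorescence; 0% = enzyme reaction without inhibitor and -100% = no enzyme wells; top concentration of the series not given in the record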
#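 After 15 min at room temperature with compound, 15 nM Sfp received 5 uM rhodamine-CoA plus 12.5 uM BHQ-2-ybbR (50 mM Hepes pH 7.6, 10 mM MgCl2). Rate came from the fluorescence difference over 30 min, ex 525/em 598 nm.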
# * = called active by the depositor; ? = inconclusive; & = joins results of further samples. Potency is read from the fitted curve at half-maximal effect. The list is partial; count on the stated rates, not on these rows.
SMILES,Sfp PPTase inh
COC(=O)C/C=C\[C@@H](C)[C@@H](/C=N\O[C@@H]1O[C@H](COC(C)=O)[C@@H](OC(C)=O)[C@H](OC(C)=O)[C@H]1OC(C)=O)NS(=O)(=O)c1ccc(C)cc1,0%
CO[C@H]1COC(=O)[C@@H](CCSC)NC(=O)C/C=C\[C@@H](C)[C@H](OC)COC(=O)[C@@H](OCc2ccccc2)/C=C\[C@@H]1C,15%
CC(C)Cn1nnnc1S(=O)(=O)CC#N,-12%
CN(C)CCN1C(=O)c2ccccc2N(C)c2ccccc21,?
NC(=S)NS(=O)(=O)c1ccc(N)cc1,?
CC[C@H](C)[C@H](NC(=O)[C@H](CO)NC(=O)[C@H](CC(C)C)NC(=O)[C@@H]1CCCN1C(=O)[C@@H]1CCCN1C(=O)[C@H](CC(=O)O)NC(=O)[C@@H](N)CC(=O)O)C(=O)N[C@@H](CC(=O)O)C(=O)N[C@@H](CC(C)C)C(=O)N[C@H](C(=O)N[C@@H](Cc1ccccc1)C(=O)N[C@@H](Cc1cnc[nH]1)C(=O)N[C@@H](CC(C)C)C(=O)N[C@@H](CC(C)C)C(=O)N[C@@H](CCCNC(=N)N)C(=O)N[C@H](C(=O)N[C@@H](CC(C)C)C(=O)N[C@@H](CC(C)C)C(=O)N[C@@H](CCC(=O)O)C(=O)N[C@@H](CC(C)C)C(=O)N[C@@H](C)C(=O)N[C@@H](CCCNC(=N)N)C(=O)N[C@H](C(=O)N[C@@H](CCC(N)=O)C(=O)N[C@@H](CO)C(=O)N[C@@H](CCC(N)=O)C(=O)N[C@@H](CCCNC(=N)N)C(=O)N[C@@H](CCC(=O)O)C(=O)N[C@@H](CCCNC(=N)N)C(=O)N[C@@H](C)C(=O)N[C@@H](CCC(=O)O)C(=O)N[C@@H](CCC(N)=O)C(=O)N[C@@H](CC(N)=O)C(=O)N[C@@H](CCCNC(=N)N)C(=O)N[C@H](C(=O)N[C@H](C(=O)N[C@@H](Cc1ccccc1)C(=O)N[C@@H](CC(=O)O)C(=O)N[C@@H](CO)C(=O)N[C@H](C(N)=O)C(C)C)[C@@H](C)CC)[C@@H](C)CC)[C@@H](C)O)[C@@H](C)O)[C@@H](C)O,4%
COc1ccc(C2CC(O)(c3ccccc3)Oc3cc(C)cc(C)c32)cc1 (stereo unspecified),?
CO/N=C(/C(=O)N[C@@H]1C(=O)N2C(C(=O)O)=CCS[C@H]12)c1csc(N)n1,50µM*
CC(C)CO/N=C1/[C@H]2O[C@@H]2[C@@H](O)[C@H]2[C@H]1CCn1c(=O)n(C)c(=O)n12,17%
CN(C)Cc1nc(-c2cn(C)c3ccccc23)no1,-18%
CC(C)C[C@@H](CC(=O)N[C@@H](CCCN)CC(=O)N[C@@H]1CCCC[C@H]1C(=O)N[C@H](CC(=O)N[C@@H](CCC(=O)O)CC(=O)O)Cc1c[nH]c2ccccc12)NC(=O)[C@@H]1CNCC[C@H]1N,-9%
COC(=O)C1(C(=O)OC)C[C@@H]2CON=C2[C@H]1c1ccccc1,-10%&2%
COc1ccccc1N1CCN(C[C@@H](C(=O)NC(C)(C)C)c2ccccc2)CC1,-8%
COc1ccc(/C=C/c2cc(OC)cc(=O)o2)cc1,21%
O=S1(=O)C2CC3C=CC2(O3)C(OCc2ccc(Cl)c(Cl)c2)C(Cc2ccccc2)N1Cc1ccc(Cl)c(Cl)c1 (stereo unspecified),8%
CCC(=O)OCC(=O)C1(OC(=O)CC)C(C)CC2C3CCC4=CC(=O)C=CC4(C)C3(Cl)C(O)CC21C (stereo unspecified),-2%
C=CCOC(=O)N[C@@H](c1ccc(Br)cc1)C(C(C)=O)C(C)=O,-13%
NC(C(=O)O)C(CC(=O)O)c1ccc(Cl)cc1 (stereo unspecified),50µM*
Cc1cc(C)c(-c2cc([C@H](C)O/N=C3/[C@H]4OC4[C@@H](O)[C@H]4[C@H]3CCn3c(=O)n(-c5ccccc5)c(=O)n34)on2)c(C)c1 (stereo partly specified),-4%
O=C(/C=C/c1ccc(O)cc1)c1ccccc1O,-43%
CCCn1c(C)nc2c(NCCN3CCOCC3)nc(C)nc21,13%
CCCCCC/C=C1\CC(C(=O)OCC)Oc2ccccc21 (stereo unspecified) (tested in a mixture with another compound),16%
CC(C)[C@@H](CC(=O)N[C@@H]1CCCC[C@H]1C(=O)N[C@H](CC(=O)N[C@@H](CCC(=O)O)CC(=O)O)Cc1ccccc1)NC(=O)C[C@H](Cc1ccccc1)NC(=O)[C@@H]1CNCC[C@H]1N,-25%
O=c1[nH]c(=O)n([C@H]2C[C@H](O)[C@@H](CO)O2)cc1/C=C/Br,3%
Cc1cccc([C@H]2[C@@H]3C=CCC[C@@]3(C)C(=O)N2Cc2ccccc2)c1,8%
CNC1=CN=C(c2ccccc2)c2cc(Cl)ccc2N1,22%
COCCN(CCOC)c1nc(C)nc2c1nc(-c1ccccc1)n2CCN1CCCC1,-1%
COc1ccc(C(C)C(=O)c2ccc(O)cc2O)cc1 (stereo unspecified),20%
CN(C)C(=O)[C@H]1C[C@@H]1[C@H](NC(=O)OCc1ccccc1)c1ccccc1,16%
CCC(=O)OCC(=O)[C@@]1(OC(=O)CC)[C@@H](C)C[C@H]2[C@@H]3CCC4=CC(=O)C=C[C@]4(C)[C@@]3(F)[C@@H](O)C[C@@]21C,-4%
CC(=Nc1ccccc1N)c1c(C)cc(=O)n(O)c1O,?
Cc1cccc(C)c1Nc1oc(-c2ccccc2)nc1-c1ccccc1F,-20%
CCOC(=O)C12CC1/C(=N\O)c1ccccc1O2 (stereo unspecified),-11%
CC12CC[C@@](C(=O)O)(C(=O)C1=O)C2(C)C,3%
CNC1C(O)C(O)C(CO)O[C@H]1OC1C(O[C@@H]2C(O)C(O)[C@@H](N=C(N)N)C(O)C2N=C(N)N)OC(C)[C@]1(O)C=O (stereo partly specified),14%
O=C(NCc1ccc2c(c1)OCO2)O[C@@H]1C(=O)c2cc(Br)ccc2O[C@H]1c1ccc2c(c1)OCO2,-12%
C=CCOC(/C=C/c1ccccc1)C[Si](C)(C)C (stereo unspecified),-2%
CCCCCCCCCCCCCCCCSCC(COC)COP(=O)([O-])OCC[N+](C)(C)C (stereo unspecified),-1%
Cc1ccc(S(=O)(=O)N[C@@H](CCc2ccccc2)CC(=O)C(C)(C)C)cc1,23%
Brc1ccc2c(c1)c1cc(Br)ccc1n2CC1CO1 (stereo unspecified),-12%

# 2 compounds drawn at random from the list so far, as already listed:
SMILES,Sfp PPTase inh
Brc1ccc2c(c1)c1cc(Br)ccc1n2CC1CO1 (stereo unspecified),-12%
CNC1C(O)C(O)C(CO)O[C@H]1OC1C(O[C@@H]2C(O)C(O)[C@@H](N=C(N)N)C(O)C2N=C(N)N)OC(C)[C@]1(O)C=O (stereo partly specified),14%

# Later entries
SMILES,Sfp PPTase inh
Nc1c(S(=O)(=O)O)cc(Nc2ccc(Cl)cc2)c2c1C(=O)c1ccccc1C2=O,16µM*
COc1ccc(NC(=O)N2CCc3nc(-c4ccc(OC)cc4C)c4c(c3C2)CO[C@@H](c2ccccc2)C4)cc1,0%
CN[C@H]1[C@@H](O[C@@H]2[C@H](O[C@@H]3[C@@H](O)[C@@H](O)[C@@H](N=C(N)N)[C@@H](O)[C@@H]3N=C(N)N)O[C@H](C)[C@@]2(O)C=O)O[C@@H](CO)[C@@H](O)[C@H]1O,-11%
COc1ccc(C2CC(c3ccccc3)Oc3c(C)ccc(C)c32)cc1 (stereo unspecified),-25%&-10%
CC(=O)OC[C@@H]1O[C@H](CCO/N=C(\C)CCN2CCCc3nc(C)c(C)cc32)C=C[C@@H]1OC(C)=O,-6%
Nc1ncnc2c1ncn2[C@H]1O[C@@H](CSCC[C@@H](N)C(=O)O)[C@H](O)[C@@H]1O,-29%
COc1nc(NC(C)=O)nc(C)c1Br,1%
N[C@H](CCCP(=O)(O)O)C(=O)O,16%&0%
COC1C[C@@H](O[C@@H]2C(C)C(=O)OC(C)C(C)C(O)C(C)C(=O)[C@@]3(CO3)CC(C)C(OC3OC(C)CC(N(C)C)C3O)C2C)OC(C)[C@@H]1O (stereo partly specified),18%
COc1ccc(-c2nc(-c3ccccc3)oc2Nc2ccc3ccccc3c2)cc1,-10%
CCC1OC(=O)C(C)[C@@H](O[C@H]2C[C@@](C)(OC)C(O)C(C)O2)C(C)[C@@H](O[C@@H]2OC(C)CC(N(C)C)C2O)[C@@](C)(O)CC(C)CN(C)C(C)C(O)[C@]1(C)O (stereo partly specified),28%
COC(=O)/C(C)=C/CC12OC(C)(C)C3CC(C=C4C(=O)c5cc6c(c(CCC(C)(C)Cl)c5OC431)OC1(C)CCC(=C(C)C)C6C1)C2=O (stereo unspecified),16%
COC(=O)NC(/C(C(=O)OC)=C(\C)NCc1ccccc1)c1ccccc1 (stereo unspecified),-8%
CCCCCC#CC[C@@H](O)/C=C/C=C/C=C\[C@@H](O)CCCC(=O)O,0%
COC(=O)CNC(=O)[C@@]1(C)C=C[C@@H](Cc2ccccc2)N1C(C)=O,14%
CCCn1c(-c2ccc(F)cc2)nc2c(NC(C)CCCN(CC)CC)nc(C)nc21 (stereo unspecified),2%
COC(=O)[C@@]1(Cc2ccc(OC)cc2)[C@H]2c3cc(C(=O)N(C)C)n(CCO)c3C[C@H]2CN1C(=O)c1ccccc1,22%
CO/N=C(\C)CCN1CCCc2nc(C)c(C)cc21,10%
C=C1C=CS(=O)(=O)N(Cc2ccccc2)C1,4%
CC(=O)N(O)C/C=C/c1cccc(Oc2ccccc2)c1,-2%

# Ordered by number of heavy atoms (descending): some entries from above.
SMILES,Sfp PPTase inh
COc1ccc(-c2nc(-c3ccccc3)oc2Nc2ccc3ccccc3c2)cc1,-10%
COc1ccc(C2CC(c3ccccc3)Oc3c(C)ccc(C)c32)cc1 (stereo unspecified),-25%&-10%
COC(=O)CNC(=O)[C@@]1(C)C=C[C@@H](Cc2ccccc2)N1C(C)=O,14%
C=C1C=CS(=O)(=O)N(Cc2ccccc2)C1,4%
N[C@H](CCCP(=O)(O)O)C(=O)O,16%&0%

# Next part.
SMILES,Sfp PPTase inh
CN1CCN(c2cc3c(nn2)Oc2ccccc2N3C)CC1,25%
CO[C@]1(NC(=O)[C@H](C(=O)O)c2ccc(O)cc2)C(=O)N2C(C(=O)O)=C(CSc3nnnn3C)CO[C@H]21,-21%
O=C(O)[C@H](CC(=O)N1C[C@H]2CCCC[C@H]2C1)Cc1ccccc1,13%
C=CCOC(=O)NC(c1ccc(F)c(F)c1)C(C(C)=O)C(=O)OC (stereo unspecified),-27%
CC[C@H](C)[C@H](NC(=O)[C@H](CC(C)C)NC(=O)[C@@H](N)CO)C(=O)NCC(=O)N[C@@H](CCCN=C(N)N)C(=O)N[C@@H](CC(C)C)C(=O)O,21%
CC(C)=CCC/C(C)=C/CO/N=C1/C[C@@H](O)[C@@H](O)[C@@H]2[C@@H]3C(=O)N(C[C@@H]4CCCO4)C(=O)[C@H]3CC[C@@H]12,15%
O=C(/C=C/c1ccc(O)c(O)c1)O[C@@H]1C[C@@](O)(C(=O)O)C[C@H](O)[C@@H]1O,50µM*
N[C@@H](CSS(=O)(=O)O)C(=O)O,45µM*
CCC(C)C(NC(=O)C(Cc1ccc(O)cc1)NC(=O)C(N)C(C)C)C(=O)NC(Cc1cnc[nH]1)C(=O)N1CCCC1C(=O)NC(Cc1ccccc1)C(=O)O (stereo unspecified),-14%
CC(=O)Oc1c(C)cc(OCC(O)CNC(C)C)c(C)c1C (stereo unspecified),26%
COC(=O)[C@@]1(Cc2ccc(OC)cc2)[C@H]2c3cc(C(=O)N(C)C)n(CCF)c3C[C@H]2CN1C(=O)c1ccccc1,3%
CC(=O)OC[C@H]1O[C@@H](O/N=C(\C)CCC(=O)OC[C@@H]2O[C@H](C#Cc3ccccc3)C=C[C@@H]2Oc2ccc(C)cc2)[C@H](OC(C)=O)[C@@H](OC(C)=O)[C@H]1OC(C)=O,1%
CC(=O)OCOC(c1ccc2ccccc2c1)P(=O)(OCOC(C)=O)OCOC(C)=O (stereo unspecified),13%
CCOC(=O)CN(C)C(=O)C1CC(CO[Si](C)(C)C(C)(C)C)=CN1C(=O)OC(C)(C)C (stereo unspecified),0%
OCc1ccc(Cl)cc1Cl,24%
CC(=O)OCC(=O)[C@@]1(O)CCC2C3CCC4=CC(=O)CC[C@]4(C)C3C(O)C[C@]21C (stereo partly specified),9%
COCC(=O)N1CCc2nc(COc3ccccc3)c3c(c2C1)CO[C@@H](C)C3,-12%
COc1oc(=O)c2cc(N)ccc2c1Cl,-2%
CC(=O)OC1CCC2(C)C3CC(=O)C4(C)C(CC5OC6(CCC(C)CO6)C(C)C54)C3CC[C@H]2C1 (stereo partly specified),7%
CCN(CC)CCC(c1ccc(OC)cc1)c1c(OC)cc(OC)c2c(C)cc(=O)oc12 (stereo unspecified),-19%
CSCC[C@H](NC(=O)[C@H](Cc1c[nH]c2ccccc12)NC(=O)CNC(=O)[C@H](Cc1ccc(O)cc1)NC(=O)[C@H](C)NC(=O)[C@H](CCC(=O)O)NC(=O)[C@H](CCC(=O)O)NC(=O)[C@H](CCC(=O)O)NC(=O)[C@H](CCC(=O)O)NC(=O)[C@H](CCC(=O)O)NC(=O)[C@H](CC(C)C)NC(=O)[C@H](Cc1c[nH]c2ccccc12)NC(=O)[C@@H]1CCCN1C(=O)CNC(=O)[C@@H]1CCC(=O)N1)C(=O)N[C@@H](CC(=O)O)C(=O)N[C@@H](Cc1ccccc1)C(=O)NCC(=O)O,7%

# From PubChem BioAssay
